OX1R antag: human HCRTR1 antagonism; CHO/OX1R cells, Fluo-8 calcium fluorescence, orexin A; inhibition, % at 5 µM; actives 0.43% (n = 330,000);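 active means inhibition above its plate's threshold, mean inhibition of all tested compounds on the plate plus 3 SD, cut at about 37% in these data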;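 further: 0% = orexin A challenge wells and 100% = SB-334867-A antagonist wells; not every result past the cut was called active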
Target sequence (O43613 whole entry, looked up): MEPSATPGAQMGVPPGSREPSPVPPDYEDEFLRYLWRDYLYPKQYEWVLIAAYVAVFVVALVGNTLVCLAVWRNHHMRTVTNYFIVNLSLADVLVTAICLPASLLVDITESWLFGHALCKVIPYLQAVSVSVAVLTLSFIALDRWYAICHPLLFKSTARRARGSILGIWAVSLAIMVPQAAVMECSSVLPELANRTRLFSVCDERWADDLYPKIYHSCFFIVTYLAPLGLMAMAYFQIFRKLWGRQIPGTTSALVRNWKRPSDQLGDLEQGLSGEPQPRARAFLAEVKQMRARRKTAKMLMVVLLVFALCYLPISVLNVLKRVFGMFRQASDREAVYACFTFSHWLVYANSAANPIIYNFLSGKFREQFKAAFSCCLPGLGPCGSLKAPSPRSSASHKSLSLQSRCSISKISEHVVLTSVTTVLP
* = called active by the depositor. An excerpt, and most or all hits are left out here.

SMILES	OX1R antag
Cc1cc(C(=O)Nc2ncn(Cc3ccc(F)cc3)n2)ccc1[N+](=O)[O-]	-10.1
COCCN(CCNC(=O)c1ccc(NC2=NC3CS(=O)(=O)CC3S2)cc1)Cc1ccco1 (centres undefined)	-6.5
Cc1[nH]c2nc3ccccc3n2c(=O)c1CCC(C)C	-4.2
COc1ccc(CCN2CC(C(=O)N(C)Cc3ccc4nsnc4c3)CCC2=O)cc1 (centres undefined)	-30.0
CCOC(=O)c1[nH]c2ccccc2c1NC(=S)Nc1cccc(C)c1	-34.6
O=S(=O)(CCN(CCS(=O)(=O)C(F)(F)F)CC1CCCO1)C(F)(F)F (centres undefined)	-14.2
CC(C)(C)C(=O)Nc1cccc(-c2nc3ccccc3c(=O)o2)c1	5.6
CCn1c(/C=C/c2ccc(F)cc2)nc2ccccc2c1=O	-23.0
COc1ccc(-c2csc(NC(C)c3nc4cc(Cl)c(Cl)cc4n3CCOCCO)n2)cc1 (centres undefined)	-13.1
COC(=O)/C=C1\S/C(=N\N=C\CC(=O)OC)NC1=O	-6.1
CCN(CC)CCn1c(NS(=O)(=O)c2ccc(Cl)cc2)nc2ccccc21	-25.3
C=CCOc1cccc(C2/C(=C(/O)c3ccc(F)cc3)C(=O)C(=O)N2CCN2CCOCC2)c1 (centres undefined)	-32.2
CC[N+](CC)(CC=C(C)C)CC(=O)OC	10.8
CC1Oc2ccccc2OC1(O)c1ccccn1 (centres undefined)	-3.7
CCCc1cc(=O)oc2cc(OCC(=O)N3CCc4ccccc43)ccc12	-3.5
COC(=O)CNC(=O)c1cccs1	-13.7
Cc1ncsc1C(=O)Nc1cccc(C(F)(F)F)c1	3.6
CC(=O)c1ccc(S(=O)(=O)N2CCC3(CC2)OCCO3)cc1	1.5
Cc1cc(C)c(NC(=S)N(CCN(C)C)C(C)c2cccnc2)c(C)c1 (centres undefined)	-26.1
CCOc1ccc2nc(NCCCNS(=O)(=O)c3ccc(F)cc3)c(C#N)cc2c1	2.8
Cc1ccc(N(CC(=O)NCc2ccccc2)C(=O)CCC(=O)Nc2ccccn2)cc1	-4.4
C=CCOc1ccccc1CNn1nnnc1N	-2.8
COc1ccc(CCNC(=O)C2CCCN2S(=O)(=O)c2ccc(F)cc2)cc1OC (centres undefined)	-18.2
CC(=O)c1cc2c(cc1NC(=O)C1CCC1)OCO2	-6.5
O=C1C=C(NCCOC23CC4CC(CC(C4)C2)C3)C2(CCCCC2)O1	-10.8

Brought forward from above: 3 compounds, followed by the next part.
SMILES	OX1R antag
COc1ccc(CCNC(=O)C2CCCN2S(=O)(=O)c2ccc(F)cc2)cc1OC (centres undefined)	-18.2
CC(=O)c1cc2c(cc1NC(=O)C1CCC1)OCO2	-6.5
O=C1C=C(NCCOC23CC4CC(CC(C4)C2)C3)C2(CCCCC2)O1	-10.8
Cc1ccc(N2CC(C(=O)NC3CC3)CC2=O)cc1 (centres undefined)	-14.7
COc1cccc(-n2c(Cn3nc(C(F)(F)F)cc3C)n[nH]c2=S)c1	-2.5
COc1ccc(C2=NCCc3cc(OC)c(OC)cc32)cc1OC	-2.6
O=C(Nc1cc(Cl)ccn1)C1CCN(S(=O)(=O)c2cccs2)CC1	-0.4
C=CCc1ccccc1OCCOc1ccc([N+](=O)[O-])cc1/C=N/NC(N)=O	-12.0
O=C(NC1CCCCCC1)C1CCN(S(=O)(=O)N2CCC3(CC2)OCCO3)CC1	-16.4
O=C(Nc1nc2ccccc2s1)Nc1ccc([N+](=O)[O-])cc1Cl	-7.1
Cc1ccc(C)c(NC(=O)CN(C)C(=O)c2ccc(Cl)nc2)c1	-9.6
COc1ccc(S(=O)(=O)NCCCc2ccccc2)cc1	-7.7
O=C(c1cccc(OC2CCN(C3CCCC3)CC2)c1)N1CCCCCCC1	-29.5
CC1Cc2ccccc2N1C(=O)Cn1c(=O)oc2cc(S(=O)(=O)N3CCCCC3)ccc21 (centres undefined)	-4.9
CCOC(=O)c1cccc(NC(=O)CC2Oc3ccccc3NC2=O)c1 (centres undefined)	-21.4
Cc1ccc(C(=O)NCc2ccc3c(c2)OCO3)c(C)c1	-29.4
C/C(=N\Nc1ccc(C(=O)O)cc1)c1nc2ccccc2n1C	-16.9
O=C1NN(c2cccc(Br)c2)C(=O)/C1=C/c1cccs1	-9.1
C/C(CC(=O)N1CCCC1)=N\NC(=O)c1cc2ccccc2cc1O	-1.3
Cc1cc(C)n2c(SCC(=O)Nc3ccc(F)cc3)nnc2n1	-24.4
CC(=O)c1c(C)[nH]c(C(=O)OCC(=O)NCCC(C)C)c1C	-23.7
Cc1cc(C)cc(NC(=S)NCC2CCCO2)c1 (centres undefined)	-1.2
O=C(O)c1[nH]c2ccccc2c1C(c1c(F)cccc1Cl)c1c(C(=O)O)[nH]c2ccccc12	1.7
CC1CCN(c2ccc(S(=O)(=O)N3CCC(C)CC3)cc2N)CC1	5.1
O=C(Nc1cc(S(=O)(=O)N2CCOCC2)ccc1Oc1ccc(F)cc1)C1=COCCO1	-24.8
COc1ccc(/C=C/C(=O)NCC(=O)N/N=C/c2cccs2)cc1	-1.8
CCCc1cc(=O)n2[nH]c(NCc3ccccc3Cl)nc2n1	0.1
CCC(=O)Oc1ccc2c(c1)OC1(OC(C)=O)OC(C)CC1=C2C (centres undefined)	9.2

Next part
SMILES	OX1R antag
COc1cc(C(=O)NNC2=NC(C)(C)Cc3cc(C)c(C)cc32)cc(OC)c1OC	-23.0
Cc1ccccc1-c1nc2sc3c(c2c(=O)o1)CCC3	-15.3
CCSC1=C(C#N)C(c2ccccc2OC)CC(=O)N1 (centres undefined)	-12.1
NC(=O)c1cc(S(=O)(=O)N2CC=C(c3ccccc3)CC2)cs1	-10.8
CCCn1c(SCC(=O)Nc2cc(Cl)ccc2OC)n[nH]c1=O	-4.0
Cc1ccc(-c2nnn(CC(=O)N(c3cccc(F)c3)C(C(=O)NC3CCCC3)c3ccco3)n2)o1 (centres undefined)	-13.3
O=C(CSc1nnc(-c2n[nH]c3ccccc23)n1-c1ccccc1)Nc1ccccc1Cl	-10.9
COc1ccc(-c2c(O)c(C#N)c(-c3ccccc3)n(-c3ccc(OC)cc3)c2=O)cc1	-20.6
O=C(O)c1ccccc1OC(=O)C12CC3CC(CC(C3)C1)C2	-4.6
O=C1C=C(c2ccccc2)OC(=O)C1C(=O)c1ccccc1 (centres undefined)	-7.8
COc1ccc(C/C(C)=N\NC(=O)c2c[nH]c3ccccc23)cc1OC	-4.2
CC(OC(=O)CNC(=O)C12CC3CC(CC(C3)C1)C2)C(=O)Nc1ccc(N2CCOCC2)cc1 (centres undefined)	-10.1
CC(=O)Nc1ccc2nc(NC(=O)COc3ccccc3)sc2c1	-17.3
CN1CCN(C(=O)C2CC(=O)N(c3ccc(F)c(Cl)c3)C2)CC1 (centres undefined)	-10.2
CN1CCC(OC(=O)COc2ccc(Cl)cc2Cl)CC1	2.6
CSCc1ccc(C(=O)NC2CC(C)(C)Cc3c2cnn3-c2ccc(F)cc2)o1 (centres undefined)	-21.7
CCOc1cc2[nH]c(=O)n(CCCC(=O)NCc3ccco3)c(=O)c2cc1OCC	-26.9
COc1ccccc1N1CCN(C(=O)CCCn2nc(C)c([N+](=O)[O-])c2C)CC1	-22.9
COc1cc2c(cc1OC)C(C)N(C(=O)c1sccc1C)CC2 (centres undefined)	-25.2
CC(CN1CCCC1)OC(=O)Cc1ccc(Cl)cc1 (centres undefined)	-1.6
CCc1ccc(NC(=O)c2cc(-c3cccs3)on2)cc1	-13.2
CN(C)c1ccc(N2CC(C)(C)C2=O)cc1	-8.9
CCOC(=O)c1ccc(NC(=S)N2CCCC(C(=O)N3CCCC3)C2)cc1 (centres undefined)	-14.9
COc1ccc(NC2CCCN(C(=O)COc3ccc(C)cc3)C2)cc1 (centres undefined)	-16.9
COC(=O)Nc1cc(C)n(-c2ccccc2)n1	-6.7

Continued.
SMILES	OX1R antag
Cc1ccc(CNC(=O)CCCC(=O)O)cc1	-1.7
Cc1ccccc1C=Nc1ccccc1C(N)=O	-13.3
Cc1ccc(C(=O)N2CC3(C(C)C)CN(C(=O)c4ccc(C)cc4)CC(C(C)C)(C2)C3=O)cc1	-38.9
CCOC(=O)c1ccc(N/C=C2\CCCCC2=O)cc1	-16.6
Cc1ccc(SCC(=O)c2c(C)[nH]c3ccccc23)cc1	-2.2
CC(C)CC1(C(=O)NCc2ccccn2)C=CCN1C(=O)c1ccccc1 (centres undefined)	-35.0
CN(C)Cc1n[nH]c(=O)c2ccccc12	18.4
COc1ccc(-c2cc(C(F)(F)F)c(C#N)c(SCC(=O)Nc3ccc(C)cc3)n2)cc1	-14.1
Cn1c(CNc2nc(-c3ccccc3)cs2)nnc1SCC(=O)c1ccccc1	-4.2
CCOC(CCNC(=O)CCC(=O)Nc1ccc2nc(N3CCN(C)CC3)cc(C)c2c1)OCC	-17.7
CC(=O)c1ccc(O)c(CSc2nncn2C)c1	-21.4
O=C(NNC(=O)C1CC(=O)N(c2ccc3c(c2)OCCO3)C1)c1ccc(F)cc1 (centres undefined)	-11.7
COC(=O)COc1cccc(NC(=O)c2ccc(C)cc2)c1	-17.5
Cc1ccc(Nc2nnc(SCc3cc(=O)n4ccsc4n3)s2)c(C)c1	-22.3
O=C(CN1C(=O)CC(c2ccco2)Sc2ccccc21)NCC1CCCO1 (centres undefined)	-7.8
Cc1ccc(N2CCN(c3ccc(C)cc3)C2c2ccccn2)cc1	-7.9
CC(Sc1nc(-c2ccc(F)cc2)cs1)C(=O)N1c2ccccc2CC1C (centres undefined)	-30.6
O=C(CN1C(=O)COc2ccccc21)N1CCc2ccccc2C1	-32.8
Nc1nccc(-c2ccc(-n3cccc3)cc2)n1	-8.1
COc1ccc(OC)c(/C=C/c2nc3ccccc3[nH]c2=O)c1	-8.1
COc1ccc(S(=O)(=O)NC2CCCCC2)cc1C(=O)N1CCCCC1	-15.0
CC(=O)C(Cc1ccc(Cl)nc1)(Cc1ccc(Cl)nc1)C(C)=O	-16.9
COc1ccc(C2=NS(=O)(=O)N(C)C(C(=O)N3CCN(C)CC3)=C2)cc1	-15.3
Fc1ccc(NC(=S)Nc2cccnc2)cc1Cl	-2.8
CC(C)(C)C(=O)Nc1ccc2c(c1)OCCOCCOc1cc(NC(=O)C(C)(C)C)ccc1OCCOCCO2	5.3

(more compounds)
SMILES	OX1R antag
COc1cc(OC)cc(C(=O)OCC(=O)N2CCCC2)c1	-7.4
CC1CC(C)(C)NC(=S)O1 (centres undefined)	-8.5
CCn1cnc2c1c(=O)n(CC(=O)Nc1cc(C)on1)c(=O)n2Cc1ccccc1	-0.1
COc1ccc(CNC(=O)CN2C(=O)COc3ccc(S(=O)(=O)N4CCC(C)CC4)cc32)cc1	-29.6
Cc1ccc(N2CCN(C(=O)c3cn(CC4CCCCC4)nn3)C(C)C2)cc1 (centres undefined)	-24.2
CCC(C(=O)NCc1ccco1)n1nc(-c2ccc(OC)cc2)ccc1=O (centres undefined)	-13.7
O=C(c1cccs1)N(c1cccc(Cl)c1)C1C=CS(=O)(=O)C1 (centres undefined)	-1.3
Cc1ccc(SCCCn2cnc3ccccc3c2=O)cc1	-20.6
CCCNC(=O)C1CC(=O)N(c2ccc(OCc3ccc(F)cc3)cc2)C1 (centres undefined)	-32.4
CN1CCN(S(=O)(=O)c2ccc(NC(=O)c3csc4ccccc34)cc2)CC1	8.8
Cc1ccc2cccc(OCc3ccc(F)cc3)c2n1	-15.1
Cc1ccc(NC(=O)c2cccs2)cc1NC(=O)c1cccnc1	-14.6
COc1ccc(C(N)=O)cc1NC(=O)CC(O)(C(F)(F)F)C(F)(F)F	13.8
Cc1c(NC(=O)CCC2CCCCC2)cc(C(=O)N2CCOCC2)cc1[N+](=O)[O-]	-19.8
CCCCSc1nc(C(=O)O)cc(=O)[nH]1	-2.3
O=C(c1cc(F)c(F)cc1Cl)N1CCN(c2ncccn2)CC1	-4.2
CN1CCC=C(C(=O)N2c3ccccc3Sc3ccc(Cl)cc32)C1	7.5
Cc1ccc(S(=O)(=O)NCCC(c2ccccc2)c2ccccc2)cc1C(=O)O	-3.4
COc1ccc(NS(=O)(=O)c2cc3c(cc2C)N(C(C)=O)CCO3)cc1	-19.2
CCSc1nnc(CNC(=O)C23CC4CC(CC(C4)C2)C3)n1Cc1ccccc1	-33.2
CC(C)(C)CC(=O)O/N=C(\N)c1ccncc1	-13.9
O=C(O)CC1SC(=Nc2ccc(O)cc2)NC1=O (centres undefined)	3.5
O=C(Cn1ncc2c(=O)oc3ccccc3c21)N1CCN(c2ccccn2)CC1	-23.7
Nc1ccc(CN2CCOCC2)cc1	-23.5
Cc1cc(-c2nn3c(C)nnc3s2)ccc1NC(=O)C(C)(C)C	0.3
CC(=O)Nc1ccc(S(=O)(=O)NC(C(=O)O)C(C)O)cc1 (centres undefined)	-2.8

In the list so far, 14 contain an NH in an aromatic ring.
SMILES	OX1R antag
Cc1[nH]c2nc3ccccc3n2c(=O)c1CCC(C)C	-4.2
CCOC(=O)c1[nH]c2ccccc2c1NC(=S)Nc1cccc(C)c1	-34.6
COc1cccc(-n2c(Cn3nc(C(F)(F)F)cc3C)n[nH]c2=S)c1	-2.5
CC(=O)c1c(C)[nH]c(C(=O)OCC(=O)NCCC(C)C)c1C	-23.7
O=C(O)c1[nH]c2ccccc2c1C(c1c(F)cccc1Cl)c1c(C(=O)O)[nH]c2ccccc12	1.7
CCCc1cc(=O)n2[nH]c(NCc3ccccc3Cl)nc2n1	0.1
CCCn1c(SCC(=O)Nc2cc(Cl)ccc2OC)n[nH]c1=O	-4.0
O=C(CSc1nnc(-c2n[nH]c3ccccc23)n1-c1ccccc1)Nc1ccccc1Cl	-10.9
COc1ccc(C/C(C)=N\NC(=O)c2c[nH]c3ccccc23)cc1OC	-4.2
CCOc1cc2[nH]c(=O)n(CCCC(=O)NCc3ccco3)c(=O)c2cc1OCC	-26.9
Cc1ccc(SCC(=O)c2c(C)[nH]c3ccccc23)cc1	-2.2
CN(C)Cc1n[nH]c(=O)c2ccccc12	18.4
COc1ccc(OC)c(/C=C/c2nc3ccccc3[nH]c2=O)c1	-8.1
CCCCSc1nc(C(=O)O)cc(=O)[nH]1	-2.3

Assay outcomes as filed in PubChem BioAssay.
